Vif TR-FRET = inhibitors of Vif binding to APOBEC3G peptide, primary screen, biochemical, TR-FRET, GST-Vif 1-94, biotin-A3G peptide, dose response retest (AID 1117319) | inhibition, %; hits with a dose series show IC50 in µM | TR-FRET GST-Vif / biotin-A3G peptide binding; higher % means a stronger effect; test concentration not given here; strong numbers were not always called active | 0.57% of 260,000 active;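 active means above the screen mean plus three standard deviations and confirmed in dose response; inconclusive means results disagree or hit not tested in dose response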;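 further: Vif residues 1-94 fused to GST binding biotinylated APOBEC3G peptide 110-148; 0% = full assay without inhibitor and 100% = GST in place of GST-Vif; retest series ran down from 100 µM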
A1 inh = inhibitors of the anti-apoptotic protein A1, read as caspase activation; MEF A1-2A-BIM cells, Caspase-Glo 3/7 luminescence, 3 h; percent of clofoctol response, vehicle zero; caspase activation, % (concentration not given with the values); 0.066% of 330,000 active; AID 2462;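 active means over half of replicate activation scores above 10%, or exactly half above 10 with the replicate mean above 10; inconclusive means replicate mean below 10 yet half the replicates above 10; inactive means over half of replicates below 10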;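 further: wells of about 30 µL received 50 nL stock; many hits fall short of the cut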
RanGTP-Imp inh = inhibitors of RanGTP-importin-beta interaction, primary screen, biochemical, FRET, CFP-Ran, YFP-importin-beta, homogeneous. inhibition, % (no concentration beside the values). 1.1% of 300,000 active. cell-free CFP-Ran/YFP-importin-beta FRET ratio. AID 2216;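 active means most replicates above 15%; inconclusive means exactly half above 15%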;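 further: 0% = DMSO wells and 100% = Ran loaded with GDP instead of GTP; wells of about 40 µL received 100 nL stock; the first replicate is given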
T cruzi inh = blocks replication of Trypanosoma cruzi. T. cruzi beta-gal in NIH3T3, luminescence, 90 h. 1.4% of 300,000 active. inhibition, % (test concentration not listed). AID 1885;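 active means mean inhibition across valid replicates above about 55%, limit read from the data; inconclusive means mean below that limit but half or more replicates reach it; inactive means mean below it, under half of replicates reach it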;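 further: signal also drops with host cell toxicity which is not excluded here; 0% = plate median of DMSO wells and 100% = zero luminescence signal; higher percent means less beta-gal luminescence so fewer parasites; stock transfer was 50 nL into about 50 µL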
Calb FLC = C. albicans growth modulation with fluconazole. 0.57% of 300,000 active. C. albicans CaCi-2 (fluconazole-resistant clinical isolate) + fluconazole, Alamar Blue growth, 48 h. growth inhibition, % (test concentration not listed);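 active means most replicates above 75%; inconclusive means exactly half above 75%; inactive means most below 75%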;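 further: all wells also contain fluconazole at 8 µg/ml as a sub-toxic cotreatment; 0% = median of DMSO wells and 100% = median of geldanamycin control wells; wells of about 8 µL received 7.5 nL stock; the first replicate is given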
Beta cell apopt = blocks beta cell apoptosis; INS-1E cytokine-induced death, ATP luminescence, 48 h; percent of positive-control rescue, neutral wells zero; protection from apoptosis, % (no concentration beside the values); 0.8% of 300,000 active; AID 435005;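 active means all replicates at 75% or more, or half of them and the mean; inconclusive means half reach 75% but not the mean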;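 further: 0% = cytokine-treated negative control wells and 100% = positive control rescue; higher means more ATP so stronger rescue from cytokine killing; wells of about 40 µL received 100 nL stock; the first replicate is given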
MLL AF4-AF9 inh = MLL-AF4/AF9 protein interaction inhibition; P42568; AlphaScreen, biotin-AF4 peptide binding to FLAG-AF9; inhibition, % at 10 µM; 0.47% of 350,000 active; AID 651704;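 active means every replicate reaching a set inhibition limit, whatever the replicate mean, cut at about 25% in these data; inconclusive means mean inhibition reaches that limit but some replicates miss it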;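 further: 0% = plate neutral control median and 100% = total signal loss; the record names both 10 and 1 µM as test concentration; the first replicate is given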
LANA-H2A inh = blocks KSHV LANA binding to histone H2A/H2B; cell-free LANA-H2A/H2B peptide, fluorescence polarization; inhibition, % (no concentration beside the values); 0.6% of 320,000 active; in the data active means inhibition mostly above about 10%, no sharp cut-off; inactive means mostly below about 6.7%;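 further: stock transfer was 7.5 nL into about 10 µL; 0% = median of vehicle wells and 100% = median of positive control wells; one replicate is shown; the record names a cut of 25% in any replicate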
Target sequence (Q9QR71 whole entry, looked up): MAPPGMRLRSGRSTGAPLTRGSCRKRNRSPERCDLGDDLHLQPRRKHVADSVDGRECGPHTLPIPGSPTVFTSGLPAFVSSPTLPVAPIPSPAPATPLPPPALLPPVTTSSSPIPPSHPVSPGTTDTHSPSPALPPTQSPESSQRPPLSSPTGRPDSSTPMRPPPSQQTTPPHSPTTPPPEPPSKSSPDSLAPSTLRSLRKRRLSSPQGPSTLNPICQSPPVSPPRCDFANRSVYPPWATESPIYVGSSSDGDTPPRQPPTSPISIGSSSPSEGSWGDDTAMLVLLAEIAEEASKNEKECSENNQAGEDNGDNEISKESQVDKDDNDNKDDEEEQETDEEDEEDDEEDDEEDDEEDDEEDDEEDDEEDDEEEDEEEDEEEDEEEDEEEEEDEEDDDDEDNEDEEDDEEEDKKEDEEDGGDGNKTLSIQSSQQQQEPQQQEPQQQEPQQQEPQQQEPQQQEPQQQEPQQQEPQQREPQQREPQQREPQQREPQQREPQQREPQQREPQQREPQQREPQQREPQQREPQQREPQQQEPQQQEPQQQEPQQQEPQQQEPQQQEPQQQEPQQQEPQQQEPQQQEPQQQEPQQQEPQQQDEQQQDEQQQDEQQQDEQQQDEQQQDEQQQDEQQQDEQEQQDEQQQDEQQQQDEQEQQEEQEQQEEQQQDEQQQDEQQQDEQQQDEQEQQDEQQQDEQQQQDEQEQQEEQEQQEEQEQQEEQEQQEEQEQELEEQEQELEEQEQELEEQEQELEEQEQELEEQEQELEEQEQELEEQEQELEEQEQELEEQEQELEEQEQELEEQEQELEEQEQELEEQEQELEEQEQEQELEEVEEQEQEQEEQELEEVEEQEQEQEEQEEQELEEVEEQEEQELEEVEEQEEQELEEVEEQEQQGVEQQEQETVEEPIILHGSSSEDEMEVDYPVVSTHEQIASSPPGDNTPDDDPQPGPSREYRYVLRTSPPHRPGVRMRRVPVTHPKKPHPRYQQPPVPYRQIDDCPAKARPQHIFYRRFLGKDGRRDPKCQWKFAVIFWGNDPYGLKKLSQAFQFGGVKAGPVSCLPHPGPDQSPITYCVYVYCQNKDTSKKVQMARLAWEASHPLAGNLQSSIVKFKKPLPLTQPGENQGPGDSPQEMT
The depositor's hits bear a star; i = inactive; ? = inconclusive; / = not tested or not shown.

canonical_smiles	Vif TR-FRET	A1 inh	RanGTP-Imp inh	T cruzi inh	Calb FLC	Beta cell apopt	MLL AF4-AF9 inh	LANA-H2A inh
CC(C)NC(=O)c1ccccc1NC(=O)C1CCCO1 (stereo not drawn)	-2%	-0.1	3.4	-8	-1	-7	/	-1.4
O=C1/C(=C/c2ccccc2)CCCc2ccccc21	-1%	-5.7	-2.5	-33	-17	5	/	-1.7
CCC(C)NC(=O)C1=C(C)C(=O)OC12CCC(C)CC2 (stereo not drawn)	3%	-0.9	-0.4	7	2	-2	-11	-3.1
COc1cc(-c2noc(C)c2/C=C/c2cccc([N+](=O)[O-])c2)cc(OC)c1OC	/	1.8	0.9	26	2	25	7.3	0.0
Cc1cc(C(=O)NNC(=O)C(C)(C)Oc2ccc(Cl)cc2)c(C)o1	/	1.6	/	/	/	-4	2.3	-1.2
CCC1CO/C(=C(\C(Cl)=C(Cl)Cl)[N+](=O)[O-])N1 (stereo not drawn)	6%	1.2	-2.2	-32	-27	/	-6.1	-6.1
CC(=O)Oc1ccc(-c2nc3c(C)cccc3c(=O)o2)cc1	/	-0.2	-0.9	-5	3	3	-3.3	-7.6
FC(F)(F)c1cccc(NC(=S)Nc2ccc(Cl)cc2Cl)c1	-7%	-0.3	4.3	2	2	12	/	-5.2
COc1ccc(C(=O)N2CCN(c3ccc(C)c(C)c3)CC2)cc1OC	8%	0.0	?	2	10	1	9.4	-2.4
COc1ccccc1C(=O)NC(CCSC)C(=O)OC(C)C(=O)NC1CC1 (stereo not drawn)	-13%	-0.3	3.1	-9	-10	/	-0.9	-0.7
CCOC(=O)c1cccc(C(=O)Nc2nc3ccc(OC)cc3s2)n1	13%	-1.5	2.7	0	21	5	-9.7	-3.3
NC(=O)c1ccsc1NC(=O)COC(=O)c1cc(=O)[nH]c2ccccc12	1%	1.6	-0.7	-5	-2	/	-1.6	-1.7
Cc1ccc(-n2ncc3c(NCCCn4ccnc4)ncnc32)c(C)c1	/	0.2	2.1	-13	-2	-4	2.3	5.2
COc1ccccc1N1C(=O)S/C(=C\c2ccc(C)s2)C1=O	-7%	0.9	-2.5	-5	-1	-4	2.5	2.3
CCn1ncc([N+](=O)[O-])c1C(=O)NC1CCCCC1	/	0.1	-0.9	-6	-15	1	-0.1	11
O=C(CCS(=O)(=O)c1ccc(F)cc1)Nc1nnc(-c2ccc(F)cc2)o1	-7%	0.3	-1.4	-28	0	-19	1.8	-3.1
COc1cccc(CNCCc2c[nH]c3ccccc23)c1OCc1ccc(F)cc1	1%	0.8	-3.0	49	16	24	/	0.7
Cc1c(OC(C(=O)O)c2ccccc2)ccc2c(-c3ccccc3)cc(=O)oc12 (stereo not drawn)	0%	0.1	6.4	5	8	2	-7.0	3.7
O=C(CN1C(=O)C(=O)N(C2CCCC2)C1=O)Nc1ccc(Cl)cc1C(F)(F)F	-6%	0.2	/	/	/	-3	2.5	i
CC(OC(=O)CCCC(=O)Nc1ccccc1)C(=O)c1ccccc1 (stereo not drawn)	/	-0.2	0.7	-14	-5	-7	1.9	1.5
COc1cc(/C=C/[N+](=O)[O-])ccc1OC(=O)c1cc2ccccc2oc1=O	3%	1.2	2.0	-19	-11	18	-4.0	2.7
Cc1ccc(S(=O)(=O)NC(C)(C)CN2CCNCC2)cc1	/	-0.2	0.1	?	-7	-8	1.1	-2.5
O=C(N/N=C\CCc1ccccc1)c1ccco1	-1%	-0.2	-0.3	-22	6	0	/	-0.2
O=C(CN1CCN(C(=O)c2c(F)cccc2F)CC1)Nc1ccccc1F	?	0.3	/	/	/	-4	/	7.7
CC1CCN(C(=O)CC(NC(=O)c2ccccc2Cl)c2ccccc2)CC1 (stereo not drawn)	/	1.3	1.4	0	1	1	-2.2	-44
Cc1ccn(CCC(=O)NC2CCCc3c2cnn3-c2cccc(C)c2C)n1 (stereo not drawn)	/	0.7	2.5	-17	2	0	1.5	4.6
COCc1cc(C)nc(SCC[N+](C)(C)CC(=O)Nc2cccc(C)c2)c1C#N	7%	-0.3	2.7	2	-49	-1	2.9	4.9
Cc1ccc(S(=O)(=O)N(C)C)cc1NC(=O)COC(=O)c1ccc2c(=O)n3c(nc2c1)CCC3	-3%	0.2	0.0	0	-6	-2	0.0	0.3
CCCCCCCCN=C1NC(=O)CS1	-5%	-0.3	3.9	-3	-9	4	3.0	-0.9
COc1ccccc1N1CCN(CC(=O)Nc2ccnn2C2CCCC2)CC1	-15%	0.0	/	/	/	-9	-1.4	4.0
CCOc1ccc(CN2CCN(Cc3ccon3)CC2CCO)cc1 (stereo not drawn)	19%	-0.9	3.1	2	-4	0	-2.0	0.9
O=C(CN1C(=O)c2ccccc2S1(=O)=O)NCCSc1ccccc1	?	0.2	-1.6	-3	-7	-2	/	4.0
Cn1c(O)c(N=NC(=O)c2ccccc2O)c2ccccc21	/	-0.5	-1.9	3	22	15	-1.1	-0.5
Cc1cc(C)c2c(CC(=O)NNC(=O)c3ccccc3)coc2c1	-3%	0.6	-3.9	16	6	-5	-2.5	5.6
Cc1cc(/C(N)=N/OC(=O)c2ccccc2Cl)no1	-6%	-11	-3.2	/	17	/	5.7	0.0
CCn1c(SCc2ccc([N+](=O)[O-])cc2)nnc1C(C)NC(=O)c1ccccc1Br (stereo not drawn)	2%	-1.2	-4.2	-2	-2	-1	/	4.0
O=C(NCCCN1CCOCC1)c1cc(Cl)ccc1Cl	/	0.8	-3.9	-3	-1	-7	-4.2	-6.4
Cc1ccc(CCNC(=O)CCSCc2ccc(Cl)cc2)cc1	-8%	-0.2	-2.5	5	0	1	-9.9	2.0
CCc1cccc(CC)c1NC(=O)COC(=O)C1(c2ccc(Cl)cc2)CCCC1	-3%	1.4	-1.5	7	12	4	/	/
CC(O)CNc1nc2sc3c(c2c(=O)n1Cc1ccco1)CCCCC3 (stereo not drawn)	13%	-0.4	1.1	3	-19	91*	5.7	-6.1
Cc1nn(-c2nnc(C)c(=O)[nH]2)c(C)c1SCC(=O)Nc1ccc(C(C)C)cc1	5%	0.3	2.4	-26	2	4	/	4.6
COc1cc(/C=N/Nc2nc3c(c(=O)n(C)c(=O)n3C)n2Cc2ccccc2)ccc1OC(=O)c1ccco1	/	-0.1	4.3	4	11	13	4.5	0.0
COc1ccc(-n2c(Cc3cccn3C)nnc2SCC(=O)Nc2ccc(C(C)=O)cc2)cc1	10%	-0.9	-4.3	4	-6	-3	3.8	-1.2
O=C(c1cnc2ccccc2n1)N1CCN(c2ccc(C(F)(F)F)cn2)CC1	4%	0.5	9.7	-1	-6	-5	1.2	0.0
Cc1ccc(O)c(N=Nc2ccccc2)n1	/	-12	-1.9	11	/	19	0.8	0.1
CCCCNC(=O)c1ccc(S(=O)(=O)c2ccc(Cl)cc2)c(NC(C)=O)c1	7%	0.0	-1.1	-4	-2	-10	/	0.7
CC(C)(C)NC(=O)c1ccc2c(c1)N(CC(=O)NC1CCCC1)C(=O)C(C)(C)O2	/	-0.2	-2.4	-4	-1	-3	-2.0	1.2
Cc1nc(SCC(=O)NCc2ccco2)[nH]c(=O)c1C	9%	0.4	?	-19	10	-4	-63	-4.8
COc1ccc(CNc2nc3nc(C)c(Cl)c(C)n3n2)cc1OC	/	0.2	-0.8	-1	-22	-5	/	2.5
CC12CCC(C(=O)n3c1nc1ccccc13)C2(C)C (stereo not drawn)	-2%	0.5	-2.6	-1	0	-1	/	-0.6
CCCOC(=O)c1cc(-c2ccc(/C=C3/C(=O)N(C)C(=O)C(C#N)=C3C)o2)ccc1Cl	20%	-0.1	/	/	/	-1	/	-0.8
O=C(CS(=O)(=O)c1ccc(F)cc1)Nc1nnc(-c2ccccc2Cl)o1	4%	0.6	0.1	8	-4	/	-1.6	-0.4
CC1(OC(=O)C2CCCC2)C(=O)C=C2C=C(c3ccsc3)N(C3CC3)C=C2C1=O (stereo not drawn)	?	0.3	1.8	29	3	-16	0.6	0.2
COc1cccc(CC(=O)Nc2sc3c(c2C(N)=O)CCCC3)c1	/	0.3	-3.2	2	-3	-4	-0.7	-0.6
CCOc1ccc(N(CC(=O)NC2CCCCC2)C(=O)Cn2nnc(-c3ccc(C)o3)n2)cc1	/	/	?	-8	-9	/	3.0	/
CC1CC(C)CN(c2cc3c(cc2[N+](=O)[O-])C(=O)N(c2ccccc2)C3=O)C1 (stereo not drawn)	8%	-0.3	1.3	-5	0	-1	-1.3	1.4
CCOC(=O)C1(Cc2ccccc2)CCN(Cc2cn(CC(=O)OC)c3ccccc23)CC1	/	-0.4	?	3	-34	-3	0.6	-2.7
Cc1cc(C)nc(N2CCC(C(=O)NNC(=O)c3ccc(Cl)cc3)CC2)n1	2%	0.0	6.3	-5	-8	2	-1.5	-5.5
O=C(COC(=O)c1ccc(Br)o1)NC1CCCc2ccccc21 (stereo not drawn)	4%	0.3	/	/	/	-2	-2.6	-27
CC(=O)Nc1ccc(S(=O)(=O)N2CCC(NC(=O)C(Cc3cccc(F)c3)NC(C)=O)CC2)cc1 (stereo not drawn)	/	-0.5	3.8	0	2	1	-6.3	2.2

Next part:
canonical_smiles	Vif TR-FRET	A1 inh	RanGTP-Imp inh	T cruzi inh	Calb FLC	Beta cell apopt	MLL AF4-AF9 inh	LANA-H2A inh
COc1ccccc1CNC(=O)COC(=O)c1cc(S(=O)(=O)N2CCOCC2)ccc1Cl	-2%	0.3	2.6	-11	-1	3	-0.9	-4.7
CCOc1ccc(NC(=O)c2nsc(Cl)c2Cl)cc1	/	-7.4	0.8	-8	-9	5	-1.3	-2.7
CCCNC(=O)Cn1c(=O)n(C)c2ccccc21	?	0.4	3.5	-5	-7	-8	3.1	-9.8
Cc1cccc(Cn2c(=O)oc3ccc(C)cc32)c1	4%	0.8	0.9	-10	-21	0	/	-0.1
COc1cc(CN2CCNC(=O)C2CC(=O)N2CCCN(C(C)=O)CC2)cc(OC)c1 (stereo not drawn)	/	0.0	0.3	0	-15	-4	-0.8	1.4
COC(=O)c1c(C)noc1-c1snnc1C	-1%	0.8	7.1	7	-7	-8	0.3	5.2
COc1c(Br)cc([N+](=O)[O-])c(OC)c1C(=O)NC(=O)Nc1cc(Cl)cc(Cl)c1	/	0.5	2.6	-25	-1	/	-2.6	-0.7
O=C(Nc1cccc2ccccc12)N1CCCN(c2c(Cl)cncc2Cl)CC1	7%	0.3	1.4	4	1	-5	-0.6	-2.6
Cc1nc(SCC(=O)Nc2ccc(S(=O)(=O)N3CCOCC3)cc2)c2c(C)c(C)sc2n1	-9%	1.5	/	/	/	11	-3.8	1.7
COc1ccc(C2NC(=O)c3ccccc3O2)cc1 (stereo not drawn)	/	0.7	-3.2	-7	-8	-7	-0.3	1.9
Cn1nc(N2CCN(S(=O)(=O)c3ccccc3)CC2)c(=O)n(C)c1=O	?	-0.4	/	/	/	7	-2.1	/
COc1ccc(C/C(N)=N/OC(=O)c2ccc(Cl)cc2)cc1	2%	-0.3	0.7	16	-6	-2	-1.5	3.1

Compounds as they come (roughly 4.3% active in at least one column).
